Compound activity: PubChem BioAssay, Broad Institute
Vaccinia stage = blocks a specific stage of Vaccinia orthopoxvirus infection, primary screen, cell-based, single point; AID 1053133, 2014; 89,000 tested, 0.01% active; Vaccinia-infected cells, mCherry/Venus stage reporter fluorescence; active compounds read low; some inactives read as strong as hits; activity change (mCherry), % (test concentration not listed);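 active means mCherry past -33% and 40 or more points under the early reporter, replicates agreeing; inconclusive means past -33% without that gap or agreement; tested in A549 cells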;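 further: scaled between vehicle wells and reference inhibitor wells; 23 nL library stock went into each well; one replicate is shown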
Vaccinia stage Venus = second read-out of Vaccinia stage, no call of its own (marks repeat the call); activity change (Venus), %; measured here: Venus reporter, other viral stage;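 negative = less Venus signal; first of two replicates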
* hit, by the source's call; ? = inconclusive; . = no result given; & = joins results of further samples. These rows are one share of the data, so the mix of outcomes need not match the whole.

SMILES	Vaccinia stage	Vaccinia stage Venus
O=C(C[C@H]1CC[C@@H]2[C@H](COC[C@@H](O)CN2CCC(F)(F)F)O1)NCc1ccc(Oc2ccccc2)cc1	-14	-3
CN(C)C(=O)c1cccc(-c2ccc(C3[C@@H]4CN(S(=O)(=O)c5ccccc5F)C[C@H]3N4)cc2)c1 (some centres undefined)	3&-35	-4&-28
CNC[C@H]1Oc2c(N)cccc2C(=O)N([C@@H](C)CO)C[C@@H]1C	-1	-3
COc1ccc(NC(=O)N2CC(=O)N3[C@H](C2)[C@@H](c2ccc(-c4ccccc4)cc2)[C@@H]3CO)cc1	?	.
C[C@@H]1CN([C@@H](C)CO)C(=O)c2cc(NC(=O)CCC(F)(F)F)ccc2O[C@@H](C)CCCCO[C@@H]1CN(C)C(=O)c1ccccc1	19	7
CO[C@H]1CN(C)C(=O)c2cc(NC(=O)c3cccc(F)c3)ccc2OC[C@@H](C)N(C)C[C@H]1C	2	4
CCCN1[C@@H]2c3ccc(-c4ccccc4OC)c(=O)n3C[C@H]1[C@H](CO)[C@H]2C(=O)N1CCOCC1	31	10
O=C(C[C@H]1CC[C@H](NC(=O)c2cccc(F)c2)[C@H](CO)O1)NCc1ccccc1	-1	-4
CCCC#Cc1ccc([C@H]2[C@@H](C#N)N(S(=O)(=O)c3cccc(F)c3)[C@@H]2CO)cc1	?	.
CN(C)C(=O)C[C@H]1CC[C@H]2[C@@H](COC[C@H](O)CN2CC2CCOCC2)O1	9	8
COc1ccc(S(=O)(=O)Nc2ccc3c(c2)CC(=O)N([C@H](C)CO)C[C@@H](C)[C@@H](CN(C)Cc2ccc(Oc4ccccc4)cc2)O3)cc1	-32	-23
O=C(C[C@@H]1CC[C@@H]2[C@H](COC[C@@H](O)CN2C(=O)Nc2ccc(Cl)c(Cl)c2)O1)NCc1ccc(F)cc1	?	.
O=C(C[C@H]1CC[C@@H](NC(=O)Cc2ccccn2)[C@H](CO)O1)NCCCN1CCOCC1	2	3
CO[C@@H]1CN(C)C(=O)c2ccc(NC(C)=O)cc2OC[C@@H](C)N(C(=O)c2ccncc2)C[C@@H]1C	-1	1
C[C@@H]1CN([C@@H](C)CO)C(=O)c2cc(NC(=O)NC3CCCCC3)ccc2O[C@@H]1CN(C)Cc1ccc(C(F)(F)F)cc1	?	.
C[C@H](CO)N1C[C@H](C)[C@H](CN(C)C(=O)Cc2ccccc2)Oc2cc(C#CC3(O)CCCC3)ccc2S1(=O)=O	-22	-13
COc1ccc(NC(=O)Nc2ccc3c(c2)C(=O)N([C@@H](C)CO)C[C@@H](C)[C@@H](CN(C)C(=O)Nc2ccc(C(F)(F)F)cc2)OCCCC[C@@H](C)O3)cc1	9	0
COC(=O)[C@H]1[C@H](CO)[C@H]2Cn3c(ccc(-c4ccccc4F)c3=O)[C@H]2N1Cc1ccncc1	6	11
O=C(C[C@H]1CC[C@H]2[C@@H](COC[C@@H](O)CN2C(=O)Nc2ccc(C(F)(F)F)cc2)O1)NCC1CC1	-27	-8
COCC(=O)Nc1ccc2c(c1)C(=O)N(C)C[C@H](OC)[C@@H](C)CN(Cc1ccccn1)[C@@H](C)CO2	-14	-8

One compound at a time (already shown).
CN(C)C(=O)C[C@H]1CC[C@H]2[C@@H](COC[C@H](O)CN2CC2CCOCC2)O1 across the screens: Vaccinia stage = 9; Vaccinia stage Venus = 8
O=C(C[C@H]1CC[C@@H]2[C@H](COC[C@@H](O)CN2CCC(F)(F)F)O1)NCc1ccc(Oc2ccccc2)cc1 across the screens: Vaccinia stage = -14; Vaccinia stage Venus = -3

Additional entries follow.
SMILES	Vaccinia stage	Vaccinia stage Venus
CC(C)NC(=O)Nc1ccc2c(c1)C(=O)N([C@@H](C)CO)C[C@H](C)[C@@H](CN(C)C(=O)NC1CCCCC1)OCCCC[C@@H](C)O2	10	2
O=C(C[C@@H]1CC[C@H]2[C@@H](COC[C@@H](O)CN2CC2CCCC2)O1)NCc1ccc(Cl)cc1	-32	-27
N#Cc1ccc(-c2ccc([C@H]3[C@@H](CO)N4CCCCN(S(=O)(=O)c5ccccc5)C[C@@H]34)cc2)cc1	-4	-6
CCCNC(=O)N1[C@@H](CO)[C@@H](c2ccccc2)C12CN(C(=O)C1CCCCC1)C2	2	8
COCC(=O)N1CC2(CCN(C(C)=O)CC2)c2c([nH]c3cc(OC)ccc23)[C@H]1CO	8	10
C/C=C/c1ccc([C@@H]2[C@@H](CN(CC)C(C)=O)N(C(=O)C3CC3)[C@H]2CO)cc1	9	13
C[C@H](CO)N1C[C@H](C)[C@@H](CN(C)Cc2ccc3c(c2)OCO3)Oc2ccc(NC(=O)CCN3CCOCC3)cc2CC1=O	7	-5
CCC(=O)N1CC[C@@H]2[C@@H](CO)N(C)c3ccc(-c4ccccc4F)cc3[C@@H]21	-17	-18
C[C@H]1CN([C@@H](C)CO)C(=O)c2cc(C#CCc3ccccc3)cnc2O[C@H]1CN(C)Cc1cccc(F)c1	?	.
C[C@H]1CN([C@@H](C)CO)C(=O)c2cc(C#CC(C)(C)O)cnc2O[C@H]1CN(C)C(=O)C1CCC1	13	11
CCNC(=O)C[C@@H]1CC[C@@H]2[C@@H](COc3ccc(NC(=O)Cc4ccccc4)cc3C(=O)N2C)O1	8	11
Cc1ccc(S(=O)(=O)N2[C@@H]3CNC[C@H]2C3c2ccc(-c3cccc(C)c3)cc2)cc1 (some centres undefined)	9&1	11&17
CCNC(=O)Nc1ccc2c(c1)C(=O)N(C)[C@@H]1CC[C@H](CC(=O)NCc3ccccc3F)O[C@@H]1CO2	3	9
C[C@H]1CN([C@@H](C)CO)C(=O)c2cccc(NS(=O)(=O)c3ccc(F)cc3)c2O[C@@H]1CN(C)CC1CC1	3	0
Cc1ccc(S(=O)(=O)N(C)C[C@@H]2Oc3ccc(NC(=O)c4ccncc4)cc3CC(=O)N([C@H](C)CO)C[C@@H]2C)cc1	19	4
COc1ccc(NC(=O)N(C)C[C@@H]2Oc3ccc(NS(=O)(=O)c4cn(C)cn4)cc3CC(=O)N([C@@H](C)CO)C[C@@H]2C)cc1	11	6
C[C@@H]1CN([C@@H](C)CO)C(=O)c2cc(NC(=O)CCN3CCOCC3)ccc2O[C@@H]1CN(C)S(=O)(=O)c1cn(C)cn1	13	9
C[C@@H]1CN([C@@H](C)CO)C(=O)c2cc(NC(=O)CCC(F)(F)F)ccc2O[C@@H](C)CCCCO[C@H]1CN(C)S(=O)(=O)c1ccc(F)cc1	?	.
N#C[C@@H]1[C@H](c2ccc(-c3cccc(F)c3)cc2)[C@@H](CO)N1C(=O)NC1CCCC1	-25	-22
O=C(Nc1ccc(Cl)cc1)N[C@@H]1CC[C@@H](CCNC(=O)c2cc(Cl)cc(Cl)c2)O[C@H]1CO	-31	-15

Grouped by structure: the compounds so far with a Cl atom.
SMILES	Vaccinia stage	Vaccinia stage Venus
O=C(C[C@@H]1CC[C@@H]2[C@H](COC[C@@H](O)CN2C(=O)Nc2ccc(Cl)c(Cl)c2)O1)NCc1ccc(F)cc1	?	.
O=C(C[C@@H]1CC[C@H]2[C@@H](COC[C@@H](O)CN2CC2CCCC2)O1)NCc1ccc(Cl)cc1	-32	-27
O=C(Nc1ccc(Cl)cc1)N[C@@H]1CC[C@@H](CCNC(=O)c2cc(Cl)cc(Cl)c2)O[C@H]1CO	-31	-15

Remaining list, next part:
SMILES	Vaccinia stage	Vaccinia stage Venus
O=C(C[C@H]1CC[C@@H]2[C@H](COC[C@@H](O)CN2S(=O)(=O)c2ccc(Cl)cc2)O1)N[C@@H]1CCN(Cc2ccccc2)C1	-28	-20
C[C@@H]1CN([C@H](C)CO)C(=O)Cc2cc(NS(=O)(=O)c3ccc(Cl)cc3)ccc2O[C@H]1CN(C)S(=O)(=O)c1cccs1	16	6
Cc1ccc(S(=O)(=O)N(C)C[C@H]2Oc3c(NC(=O)CCCCCC(=O)Nc4ccccc4N)cccc3C(=O)N([C@H](C)CO)C[C@H]2C)cc1	16	11
O=C(C[C@H]1C=C[C@H](NC(=O)c2ccc3c(c2)OCO3)[C@@H](CO)O1)NCc1ccc(F)cc1	22	29
CCCc1cn(CC[C@H]2CC[C@@H](NC(=O)C3CCC3)[C@@H](CO)O2)nn1	6	9
CN(C)CC#Cc1ccc([C@H]2[C@@H](CO)N3CCCCN(S(=O)(=O)c4ccccc4F)C[C@H]23)cc1	-21	-10
C[C@H](NC(=O)[C@H]1N[C@H]2c3ccc(-c4ccncc4)c(=O)n3C[C@H]2[C@@H]1CO)c1ccccc1	0	2
C[C@@H]1CN([C@@H](C)CO)S(=O)(=O)c2ccc(C#Cc3ccncc3)cc2O[C@H]1CN(C)S(=O)(=O)c1ccccc1	-22	-16
CCNC(=O)C[C@H]1CC[C@H]2[C@@H](COC[C@@H](O)CN2C(=O)C2CCCC2)O1	15	6
O=C(C1CCCCC1)N1C[C@@H]2[C@H](c3ccccc31)[C@@H](CO)N2CC1CCOCC1	16	8
O=C(NCC[C@H]1CC[C@@H](NS(=O)(=O)c2cccc(F)c2)[C@H](CO)O1)C1CC1	11	6
C[C@H]1CN([C@@H](C)CO)C(=O)CCCn2cc(nn2)CO[C@H]1CN(C)S(=O)(=O)c1ccc2ccccc2c1	-21	-14
COc1ccccc1-c1ccc([C@@H]2[C@@H](CO)N(C(=O)C3CC3)[C@H]2C#N)cc1	-1	3
COc1cccc(C#Cc2cnc3c(c2)C(=O)N([C@@H](C)CO)C[C@@H](C)[C@@H](CN(C)C)O3)c1	-17	-11
O=C(C[C@@H]1C[C@H]2c3cc(NC(=O)c4cccnc4)ccc3O[C@H]2[C@@H](CO)O1)NCc1cccc(F)c1	8	2
C[C@H](CO)N1C[C@H](C)[C@@H](CN(C)Cc2ccc3c(c2)OCO3)Oc2ccc(NC(=O)CCCCCC(=O)Nc3ccccc3N)cc2C1=O	7	2
C[C@@H]1CN([C@H](C)CO)C(=O)c2cc(NC(=O)c3ccccc3)ccc2O[C@@H](C)CCCCO[C@@H]1CN(C)S(=O)(=O)c1ccc(F)cc1	-8	-3
COc1ccc(NC(=O)N(C)C[C@@H]2Oc3cc(-c4ccc(C)cc4)ccc3S(=O)(=O)N([C@@H](C)CO)C[C@H]2C)cc1	?	.
O=C(c1cccnc1)N1CC(=O)N2[C@H](C1)[C@@H](c1ccc(-c3cccnc3)cc1)[C@@H]2CO	13	5
C[C@@H]1CN([C@H](C)CO)C(=O)Cc2cc(NS(=O)(=O)c3cccs3)ccc2O[C@@H]1CN(C)C(=O)Nc1ccc2c(c1)OCO2	-8	3
CCc1csc(N2[C@H](C#N)[C@H](c3ccc(-c4ccc(F)cc4)cc3)[C@@H]2CO)n1	-30	-24
O=C(Nc1ccccc1F)N[C@@H]1CC[C@@H](CCNC(=O)C2CCOCC2)O[C@H]1CO	7	9
COCC(=O)N(C)C[C@H]1Oc2cc(C#Cc3ccccc3)ccc2S(=O)(=O)N([C@@H](C)CO)C[C@@H]1C	-21	-13
CC=Cc1ccc2n(c1=O)C[C@H]1[C@H](CO)[C@@H](C(=O)NCCC)[C@@H]2N1C(=O)c1ccccc1 (mixture of isomers)	0	7
CCCC#Cc1ccc([C@H]2[C@H](CO)N3C(=O)CN(C(=O)CN4CCOCC4)C[C@@H]23)cc1	8	2
C[C@@H]1CCCCO[C@@H](CN(C)Cc2ccccc2)[C@H](C)CN([C@@H](C)CO)C(=O)c2cc(NC(=O)CCCN(C)C)ccc2O1	-6	-6
Cc1ccc(S(=O)(=O)N(C)C[C@H]2Oc3ccc(NC(=O)c4ccncc4)cc3CC(=O)N([C@H](C)CO)C[C@H]2C)cc1	2	3
CN1C(=O)c2cc(NC(=O)c3ccccc3)ccc2OC[C@@H]2O[C@@H](CC(=O)NC3CCCC3)CC[C@@H]21	0	-10
COc1cccc(NC(=O)N(C)C[C@@H]2Oc3ncc(C#Cc4ccncc4)cc3C(=O)N([C@H](C)CO)C[C@@H]2C)c1	6	14
C[C@@H]1CN([C@@H](C)CO)C(=O)c2cc(NC(=O)C3CC3)ccc2O[C@@H]1CN(C)S(=O)(=O)c1cn(C)cn1	23	11
C[C@H](CO)N1C[C@H](C)[C@H](CN(C)S(=O)(=O)c2ccccc2)Oc2ccc(NC(=O)Nc3cccc4ccccc34)cc2CC1=O	-5	-2
O=C(C[C@H]1C=C[C@H](NC(=O)Nc2ccc3c(c2)OCO3)[C@@H](CO)O1)NCCCN1CCOCC1	7	13
COc1cccc(S(=O)(=O)N2C[C@H](O)COC[C@H]3O[C@@H](CC(=O)Nc4ccccc4)CC[C@@H]32)c1	-16	3
COc1cccc(C(=O)Nc2ccc3c(c2)OC[C@@H](C)N(C(=O)C2CCCC2)C[C@H](C)[C@@H](OC)CN(C)C3=O)c1	?	.
COc1ccc(S(=O)(=O)Nc2cccc3c2O[C@H](CN(C)Cc2ccccc2)[C@@H](C)CN([C@@H](C)CO)C3=O)cc1	5	5
C[C@@H]1CCCCO[C@H](CN(C)C(=O)NC2CCCCC2)[C@@H](C)CN([C@@H](C)CO)C(=O)c2cc(NC(=O)CCC(F)(F)F)ccc2O1	-3	-5
COc1ccc2c3c(n(C)c2c1)[C@H](CO)N(C(=O)Nc1ccc(F)cc1)CC31CN(C(=O)Cc2ccncc2)C1	1	8
C[C@H]1CN([C@@H](C)CO)C(=O)Cc2cc(NC(=O)CCN3CCOCC3)ccc2O[C@@H]1CN(C)Cc1ccc(-c2ccccc2)cc1	-18	-14
